StopGo reporter: High Throughput Screening for Foot and Mouth Disease Virus Antivirals. Potency, µM (doses to about 57.9 µM), inactives show at the highest dose signal change, negative = less light. 410,000 compounds, 1.2% hits. human cells with a luciferase reporter of 2A StopGo recoding; control for the full effect not named in the record. AID 1159524, 2015; active = well fitted falling curve with a large enough effect; inconclusive = small, poorly fitted or top-dose-only effect; inactive = no such curve, though single readings can be large or run the other way; tested in HEK293T cells; further: on the % scale 0 is the no-effect control and ±100 the full control effect; nearly all actives have a fitted effect of over 45% in size; luciferase light after 4 h
RE007 growth inh: qHTS Assay for Inhibitors of the HIV-1 protein Vpr | Potency, µM (titrated, usually from 92.2 µM), without a hit: at the highest dose activity change, negative = less growth | 360,000 compounds, 0.21% hits | S. pombe RE007 Vpr strain, BacTiter-Glo ATP luminescence, 24 h; control for the full effect not named in the record; active = well fitted falling curve with a large enough effect; inconclusive = small, poorly fitted or top-dose-only effect; inactive = no such curve, though single readings can be large or run the other way;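 further: on the % scale 0 is the no-effect control and ±100 the full control effect; nearly all actives have a fitted effect of over 50% in size; the assay follows cell death caused by Vpr and the record does not say whether a fall means rescue or toxicity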
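Fission yeast RE007 carrying one integrated HIV-1 vpr copy, seeded at OD 0.01 in PMG+AL medium with 23 nL pinned compound. Grown 24 h at 30 degrees; viability read by BacTiter-Glo luminescence after 5 min.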
SARS PLP yeast: qHTS of Yeast-based Assay for SARS-CoV PLP. S. cerevisiae expressing SARS-CoV PLpro, growth rescue; control for the full effect not named in the record. Potency, µM (series often up to 32.9 µM), for the others: at the top dose activity, positive = growth rescue. 330,000 compounds, 0.19% hits; active means well fitted rising curve with a large enough effect; inconclusive means small, poorly fitted or top-dose-only effect; inactive means no such curve, though single readings can be large or run the other way; further: 0% is about no effect; nearly all actives have a fitted effect of over 55% in size; growth read by luminescence after 48 h
NS1 function inh: qHTS Assay for Inhibitors of Influenza NS1 Protein Function; 270,000 compounds, 0.4% hits; AID 2326, 2010; Potency, µM (series often up to 46.1 µM), without a hit: at the top dose activity, positive = more growth; S. cerevisiae slowed by influenza A NS1, growth recovery by OD600; active means well fitted rising curve with a large enough effect; inconclusive means small, poorly fitted or top-dose-only effect; inactive means no such curve, though single readings can be large or run the other way; further: nearly all actives have a fitted effect of over 50% in size
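OD600 was taken as the measure of yeast growth restored by compound in an NS1-expressing S. cerevisiae strain. Cells had been washed out of glucose medium and diluted 1:100 into galactose -URA medium, pH 6.0.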
Cruzain Triton: qHTS Assay for Promiscuous and Specific Inhibitors of Cruzain (with detergent); Cruzipain (Trypanosoma cruzi), P25779; purified cruzain, Z-FR-AMC fluorescence, 0.01% Triton; Potency, µM, for inactives: max response, negative = inhibition, most hits filed as inhibitors; 200,000 compounds, 0.43% hits; AID 1478, 2009;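 further: plate controls were neutral wells for no effect and buffer without enzyme for full effect; nearly all actives have a fitted effect of over 40% in size; top concentration of the series not given in the record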
Target sequence (P25779 123-467 limits assumed): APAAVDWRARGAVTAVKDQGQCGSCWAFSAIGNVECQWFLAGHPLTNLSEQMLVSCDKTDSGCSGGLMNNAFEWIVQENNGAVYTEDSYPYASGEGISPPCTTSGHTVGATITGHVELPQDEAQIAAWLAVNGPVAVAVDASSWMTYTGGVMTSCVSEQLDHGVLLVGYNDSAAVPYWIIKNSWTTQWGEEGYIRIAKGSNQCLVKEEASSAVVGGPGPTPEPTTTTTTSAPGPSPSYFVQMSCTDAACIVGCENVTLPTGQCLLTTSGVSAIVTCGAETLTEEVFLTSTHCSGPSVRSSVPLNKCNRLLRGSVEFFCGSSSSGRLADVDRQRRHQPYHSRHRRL
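Purified cruzain (1.5 nM final) was preincubated with compounds for 15 min at room temperature in 100 mM sodium acetate pH 5.5, 5 mM DTT, 0.01% Triton X-100. Reaction started with 2 uM Z-FR-AMC; AMC fluorescence change over 60 s gave activity.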
Cruzain inh noDet: qHTS Assay for Promiscuous and Specific Inhibitors of Cruzain (without detergent). Potency, µM, without a hit: max response, negative = inhibition, most hits filed as inhibitors. purified cruzain, Z-FR-AMC fluorescence, no detergent. AID 1476, 2009. 200,000 compounds, 2.3% hits. Cruzipain (Trypanosoma cruzi), P25779;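 further: plate controls were enzyme without inhibitor for no effect and buffer without enzyme for full effect; nearly all actives have a fitted effect of over 40% in size; top concentration of the series not given in the record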
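Purified cruzain at 1.5 nM, pre-incubated 15 min with compound at room temperature in 100 mM sodium acetate pH 5.5, 5 mM DTT, 0.00005% Triton X-100. Reaction started with 2 uM Z-FR-AMC; AMC fluorescence increase over 60 s gives rate.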
Marburg entry inh: qHTS for inhibitors of binding or entry into cells for Marburg Virus | Marburg virus pseudotyped entry inhibition, cell reporter; control for the full effect not named in the record; about a third of the inactives were read at about 46 µM | Potency, µM (series often up to 37.8 µM), inactives show top-dose activity change, negative = inhibition, actives largely listed as inhibitors | 300,000 compounds, 1.8% hits; active = well fitted inhibition curve with a large enough effect; inconclusive = small, poorly fitted or top-dose-only effect, or effect the other way; inactive = flat fitted curve, though single readings scatter; tested in HEK293 cells; about a fifth of its hits are not listed in these tables; further: on the % scale 0 is the no-effect control and ±100 the full control effect; luciferase read-out
LASV entry inh: qHTS for Inhibitors of binding or entry into cells for Lassa Virus; Lassa virus pseudotype entry inhibition, cell reporter; control for the full effect not named in the record; Potency, µM (highest dose often 37.9 µM), for the others: top-dose activity change, negative = inhibition, most hits filed as inhibitors; 300,000 compounds, 1.2% hits; active means well fitted inhibition curve with a large enough effect; inconclusive means small, poorly fitted or top-dose-only effect, or effect the other way; inactive means flat fitted curve, though single readings scatter; tested in HEK293 cells; further: on the % scale 0 is the no-effect control and ±100 the full control effect; nearly all actives have a fitted effect of over 50% in size; luciferase read-out
Starred values were filed as active, the others as inactive; u = inconclusive; x = no result given; & = joins results of further samples; [ ] = remark or other dose. Unless noted, the call rests on the fitted dose curve; in most records, active means well fitted curve in the direction sought with a large enough effect; inconclusive means small, poorly fitted or top-dose-only effect, or another doubt; inactive means no such curve, though single readings can be large; an effect the other way counts as inactive or inconclusive. Potency means the concentration at half of the fitted maximal effect.

SMILES	StopGo reporter	RE007 growth inh	SARS PLP yeast	NS1 function inh	Cruzain Triton	Cruzain inh noDet	Marburg entry inh	LASV entry inh
O=[N+]([O-])c1cc(C(F)(F)F)ccc1NCCCCNS(=O)(=O)c1ccc(Cl)cc1	u	1%	8%	3%	-10%	10%	u	-13%
O=C(NCc1cccs1)c1cc2c(s1)CCCC2	44%[activator]	-20%	-9%	-38%	-2.3%	-8%	u	-31%
Cc1oc(-c2ccc(C(=O)NCCN(C)C)cc2)nc1CS(=O)(=O)c1ccccc1	-16%	x	x	x	-3.4%	-15%	x	u
O=C(/C=C/c1ccc(S(=O)(=O)N2CCOCC2)cc1)Nc1ccc(F)c(F)c1F	u	25%	3%	x	x	x	-34%	u
CCOc1ccccc1N1CC(c2nc3ccccc3n2Cc2c(C)cc(C)cc2C)CC1=O (centres undefined)	26%	x	x	x	-23%	12%	u	u
Cc1ncc(CO)c(/C=N/NC(=O)c2cccc(S(=O)(=O)N3CCCC3)c2)c1O	2%	-5%	-1%	x	x	x	u	u
CCOC(=O)C1CCCN(C(=O)c2cc3nc(-c4cccc(OC)c4)cc(C(F)(F)F)n3n2)C1 (centres undefined)	x	11%	-4%	-37%	-7.7%	u	u	u
CCc1ccc(S(=O)(=O)Nc2ccc(Cl)cn2)cc1	79%[activator]	7%	-13%	3%	x	x	x	x
CCCCCC(C)NC(=S)NC(=O)c1cc(S(=O)(=O)N2CCOCC2)ccc1C (centres undefined)	u	0%	15%	20µM*	-18%	17%	u	u
COc1cccc(C(=O)Nc2ccccc2C(=O)NC2CC2)c1	-18%	-4%	-2%	-14%	x	x	x	x
CCN(CC(=O)Nc1ccc(NC(C)=O)cc1)C(=O)CCN1C(=O)C2CC=CCC2C1=O (centres undefined)	-17%	7%	2%	x	x	x	-4%[46.1 µM]	7%
CCC(=O)NNc1nc2c(C)cc(C)cc2s1	13%	5%	0%	x	x	x	u	u
COc1ccc(CCNC(=O)c2ccc3nc[nH]c3c2)cc1	-4%	9%	-5%	8%	x	x	u	19%[46.1 µM]
O=S(=O)(Nc1ccc2nc(-c3cccc(Cl)c3)oc2c1)c1ccccc1	45%[activator]	x	x	x	-11%	6%	2%[46.1 µM]	1%[46.1 µM]
CC1CCN(C2=C(NS(=O)(=O)c3ccc(Br)cc3)C(=O)c3ccccc3C2=O)CC1	0%	-26%	-17%	26%	x	x	x	x

Full records as entered above.
O=[N+]([O-])c1cc(C(F)(F)F)ccc1NCCCCNS(=O)(=O)c1ccc(Cl)cc1 across the screens: StopGo reporter: u; RE007 growth inh: 1%; SARS PLP yeast: 8%; NS1 function inh: 3%; Cruzain Triton: -10%; Cruzain inh noDet: 10%; Marburg entry inh: u; LASV entry inh: -13%
O=S(=O)(Nc1ccc2nc(-c3cccc(Cl)c3)oc2c1)c1ccccc1 across the screens: StopGo reporter: 45%[activator]; RE007 growth inh: x; SARS PLP yeast: x; NS1 function inh: x; Cruzain Triton: -11%; Cruzain inh noDet: 6%; Marburg entry inh: 2%[46.1 µM]; LASV entry inh: 1%[46.1 µM]

(continued)
SMILES	StopGo reporter	RE007 growth inh	SARS PLP yeast	NS1 function inh	Cruzain Triton	Cruzain inh noDet	Marburg entry inh	LASV entry inh
Cc1ccc(C(C#N)N2CCOCC2)cc1 (centres undefined)	-19%	1%	4%	3%	2.9%	-4%	0%	-29%[14.3 µM]
COc1ccc(C(=O)N2CCCC(c3nc(-c4cc(OC)c(OC)c(OC)c4)no3)C2)cc1 (centres undefined)	-3%	-12%	-2%	-16%	-1.2%	u	10%	-12%
COc1ccc(CN2CC(C(=O)N3CC(C)CC(C)C3)CC2=O)cc1 (centres undefined)	-7%	-3%	1%	-11%	x	x	x	x
C#Cc1cccc(NC(=O)Cc2cccs2)c1	-2%	6%	2%	-21%	x	x	19%[46.1 µM]	0%[46.1 µM]
O=C(COc1ccc(F)cc1)N1c2ccccc2CCc2ccccc21	-27%	43%	23%	-11%	-2.6%	-8%	x	x
CCOC(=O)c1ccc(NC(=O)NC2CC3CCC(C2)N3C(=S)NC)cc1 (centres undefined)	1%	12%	4%	x	x	x	u	20%
COc1cc(C(F)(F)F)nc2ccc(C#CCOC(=O)Nc3ccccc3)cc12	-22%	-3%	2%	1%	x	x	u	3%[46.1 µM]
O=C(O)CCSc1ccc2ccccc2n1	26%&10%	10%&9%	4%&0%	-11%&-34%	-1.2%&1.2%	0%&-1%	-2%[46.1 µM]	-9%&-2%
COC(=O)[C@@]1(Cc2ccc(F)cc2)[C@H]2c3cc(C(=O)N4CCCC4)n(Cc4ccc(C)c(F)c4F)c3C[C@H]2CN1C(=O)c1ccccc1	u	-13%	x	x	-3.1%	u	x	x
Cn1c(-c2ccccc2)cnc1SCC(N)=O	-2%	-11%	u	-8%	3.6%	-5%	2%	13%
COc1ccc(CNC(=S)N/N=C/c2ccc(OC)c(OC)c2)cc1	-23%	0%	0%	4%	-5.9%	10%	15%	u
CNCc1c(C)nn(-c2ccccc2)c1C	13%	-4%	-1%	x	x	x	u	-7%
COc1ccc(N2CCN(C(=O)c3ccccc3NC(=O)C3=C(C)OCCS3)CC2)cc1	-8%	-2%	0%	-1%	x	x	-5%[46.1 µM]	-20%[46.1 µM]
Cc1ccc(NS(=O)(=O)c2c(C)[nH]c(C)c2C(=O)N2CCCCC2)cc1Cl	54%[activator]	-15%	16%	1%	x	x	-24%[46.1 µM]	5%[46.1 µM]
Cc1cn(C(=O)c2ccccc2)c(=S)n1-c1ccc(Br)cc1	-9%	-5%	-7%	-5%	-21%	3%	u	-13%

Given with values under each structure: 2 of the compounds above.
The line under a structure holds: StopGo reporter, RE007 growth inh, SARS PLP yeast, NS1 function inh, Cruzain Triton, Cruzain inh noDet, Marburg entry inh, LASV entry inh
COc1ccc(CN2CC(C(=O)N3CC(C)CC(C)C3)CC2=O)cc1 (centres undefined)
  -7%, -3%, 1%, -11%, x, x, x, x
CNCc1c(C)nn(-c2ccccc2)c1C
  13%, -4%, -1%, x, x, x, u, -7%

Other records follow.
SMILES	StopGo reporter	RE007 growth inh	SARS PLP yeast	NS1 function inh	Cruzain Triton	Cruzain inh noDet	Marburg entry inh	LASV entry inh
COc1ccc(Nc2nc(-c3ccccc3)nc3ccccc23)cc1	-24%	u	-11%	-50%	x	x	u	33%[46.1 µM]
COc1cc(OC)cc(-n2nnnc2SCC(=O)NCc2ccc3c(c2)OCO3)c1	-22%	-13%	4%	-17%	-0.2%	22%	-6%	u
C=CCSc1nnc(CNC(=O)c2ccccc2C)n1C(C)C	-24%	12%	2%	x	x	x	3%	0%
O=C(CCCC(=O)N(CC(=O)NC1CCCCC1)Cc1ccc2c(c1)OCO2)Nc1ccccn1	23%	16%	0%	-15%	-0.1%	-6%	-13%&-13%	-16%
CCOC(=O)c1ccc2c(c1)nc(C)n2CC	64%[activator]	-4%	x	x	x	x	9%	u
Nc1nc(Cn2nnc(-c3ccccc3F)n2)nc(N2CCOCC2)n1	10%	4%	2%	-10%	-1.2%	5%	16%	-4%
O=C(Nc1ccccc1)c1cc2ccccc2c(=O)s1	38%[activator]	0%	-26%	-16%	-11%	1%	-2%	1%
Cc1ccc(NC(=O)CC(=O)c2ccccc2)cc1C	0%	-5%	-1%	10%	x	x	u	-10%
CCN1C(=O)/C(=C/c2cnn(CC)c2C)SC1=S	-22%	-2%	-8%	-7%	-7.2%	-13%	u	u
COc1ccc2[nH]c(C)c(C(=O)CN(C)C)c2c1	x	6%	-2%	2%	3.0%	-8%	2%	-1%
COc1ccc(C(=O)Nc2ccc(N3CCCCC3)cc2)cc1Br	9%	-2%	7%	9%	-0.6%	-2%	-4%	u
CCN(c1ncnc2c1cnn2-c1cc(Cl)ccc1C)C1CCCCC1	u	x	x	x	0.6%	-1%	x	-25%[46.1 µM]
COc1ccc(NS(=O)(=O)c2ccc(-n3nnc4ccccc43)c([N+](=O)[O-])c2)cc1	7%	-6%	6%	5%	-5.8%	u	2%	-16%
CS(=O)(=O)N1CCC(Oc2ccccc2C(=O)NCCCc2cccnc2)CC1	-8%	8%	1%	-1%	x	x	12%[46.1 µM]	5%[46.1 µM]
CN(C)c1ccc(C2N(c3ccc(Cl)cc3)C(=O)C3CCCN32)cc1 (centres undefined)	-4%	12%	-13%	-64%	-4.1%	-11%	x	x
Cc1ccc(NC2=NCCCS2)c(C)c1C	-6%	u	26%	-9%	-0.2%	-7%	u	-12%
CCOC(=O)C1CCCN(C(=O)C2CCN(S(=O)(=O)CC)CC2)C1 (centres undefined)	x	6%	2%	-17%	6.3%	1%	6%	-1%
Cc1cc(C)c2c(-n3cccc3)c(C(=O)NNS(=O)(=O)c3ccc(F)cc3)sc2n1	28%	0%	-2%	-16%	-0.4%	-1%	u	20%
O=C(N/N=C/c1ccc(N2CCOCC2)s1)c1ccc(NS(=O)(=O)c2cccs2)cc1	3%	3%	0%	10µM*	x	x	x	x
COc1ccc2c3c(cccc13)C(=O)N(O)C2=O	-12%	x	-60%	-13%	-4.8%	9%	-30%	-23%
O=C(c1ccc(-c2ccccc2)cc1)N1CCN(c2ccccc2F)CC1	5%	1%	-11%	-22%	x	x	x	x
Fc1cccc(Cl)c1Cn1ncc2ccccc21	20%	4%	0%	2%	x	x	x	x
O=C(N/N=C/c1ccccc1Cl)c1[nH]c2ccc(Br)cc2c1-c1ccccc1	-19%	-6%	15%	-2%	-3.5%	13µM*	2.5µM*	u
Clc1ccc2nc(-c3ccc(Br)o3)c(Nc3ccc4c(c3)OCCO4)n2c1	-3%	x	x	x	-7.6%	-12%	13%[46.1 µM]	26%[46.1 µM]
COc1ccc(N(C(=O)CNC(=O)c2ccco2)C(C(=O)NC2CCCC2)c2cccnc2)cc1 (centres undefined)	-3%	-8%	1%	-3%	x	x	0%[46.1 µM]	x
O=c1c(-c2ccccc2)coc2cc(O)ccc12	37%[activator]	-20%	-15%	-45%	x	x	x	x
